# Mtb H37Rv: Confirmatory growth inhibition assay against Mycobacterium tuberculosis H37Rv, potency (AID 1949); most inactive calls were filed without a number and no value below 0 was filed; one-dose inhibition, % at 10 µg/mL; IC50 in µg/mL for titrated hits; hit rate 1.6% among 100,000;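 active = confirmed in a dose series; inconclusive = about 50% or more but not retested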;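 also: bacteria grown 7 days with compound before Alamar blue readout; 0% = untreated bacteria and 100% = reference antibiotic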
# * marks the source's active call; other numbers are inactive results; i = inactive; ? = inconclusive.
SMILES,Mtb H37Rv
CCCCN1C(=O)/C(=C2/C(=O)N(CC)c3ccccc32)SC1=S,i
CCCNC(=O)NC(C)c1cccs1 (stereo not given),i
CCOc1cc(C=O)cc(Cl)c1OCc1ccccc1C#N,i
O=C(c1cccnc1)N1C2C=CC(C2)C1(C(F)(F)F)C(F)(F)F (stereo not given),i
COc1ccc(C2=NN(S(C)(=O)=O)C(c3ccccc3Cl)C2)cc1 (stereo not given),2%
O=C(NC(=S)Nc1cccc(F)c1)c1cccc(S(=O)(=O)N2CCOCC2)c1,i
COC(=O)c1ccc(OC(=O)C(C)C)cc1,i
COc1ccc(NC(=O)NC23CC4CC(CC(C4)C2)C3)c(C)c1,2%
CCOc1ccc(NC(=O)c2ccc(-c3ccccc3[N+](=O)[O-])o2)cc1,i
O=C(Nc1n[nH]c(C2CCCCC2)n1)C1CCCCC1,i
Cc1ccc(S(=O)(=O)c2nc(C(C)(C)C)oc2N2CCOCC2)cc1,i
O=C(Nc1cccc(C(=O)Nc2ccc3c(c2)OCCO3)c1)c1ccccc1,i
CCCN(CCC)c1nc(OC)nc(OC)n1,2%
O=C(Cn1nnc2sc3c(c2c1=O)CCCC3)OCc1ccccc1,i
Cc1ccc(S(=O)(=O)Nc2ccccc2CNc2c(C)cccc2C)cc1,i
CC(=O)c1cccc(NC(=O)C2CCCN(S(=O)(=O)c3ccccc3)C2)c1 (stereo not given),i
CCc1cccc(CC)c1NC(=O)C1CC(=O)N(c2ccc(F)cc2)C1 (stereo not given),i
CCCc1cc(C(N)=O)c(NC(C)=O)s1,?
Cc1cccc(-c2noc(COc3cc(Cl)c(Cl)cc3Cl)n2)c1,i
Cc1cccc(NC(=O)COc2cc(C)c(Br)c(C)c2)c1C,i
Cc1ccc(C)c(OCC(=O)c2ccc(Br)cc2)c1,17%
CC(=O)N/C(=C\c1ccccc1)C(=O)NC(C)C(=O)O (stereo not given),i
Cc1ccc(-n2c(O)c(C)c(=O)[nH]c2=S)cc1,i
Cc1ccc(CC2CC(=O)N(CC(=O)O)C2=O)cc1 (stereo not given),9%
CCn1c(SCC(=O)Nc2ccc(N3CCOCC3)c(Cl)c2)nnc1-c1ccc(N)cc1,i
SMILES,Mtb H37Rv
CC(=O)NC(c1cccs1)c1cc(Cl)c2cccnc2c1O (stereo not given),i
CCC(NC(=O)COc1ccc(Br)cc1)c1ccccc1 (stereo not given),i
C=CCNc1oc(-c2ccccc2OC)nc1C#N,i
O=C1c2ccc([N+](=O)[O-])cc2C(=O)N1Cc1nc2ccc(Br)cc2c(=O)o1,i
CC(=O)Nc1ccc(NC(=O)CN(C)S(=O)(=O)c2ccc(Br)cc2)cc1,i
CC1(C)C2CCC1(CS(=O)(=O)N1CCCc3ccccc31)C(=O)C2 (stereo not given),i
COC(=O)c1ccc(NC(=O)CCN2C(=O)C3C4CCC(C4)C3C2=O)cc1 (stereo not given),2%
CC1CC(C)CN(c2nc(-c3ccccc3O)nc3ccccc23)C1 (stereo not given),8%
O=C(C1CCN(Cc2ccc(F)cc2)CC1)N(CCc1ccccc1)Cc1ccccc1,i
C=CCn1c(SCC(=O)Nc2ccc(Cl)c(C(=O)OC)c2)nnc1-c1cc(Br)ccc1O,16%
COc1ccc(NC(=O)CSc2nnc(NC(=O)CCc3ccccc3)s2)c([N+](=O)[O-])c1,i
O=C(O)c1ccc(Cl)c(S(=O)(=O)Nc2ccccc2)c1,i
COc1cc(C2NC(=O)NC(C)=C2C(=O)NCc2ccccc2)cc(Br)c1OC(C)C (stereo not given),i
CS(=O)(=O)N1CCN(Cc2cc(Br)ccc2O)CC1,i
CCOC(=O)C1=C(C)Nc2ncnn2C1c1ccco1 (stereo not given),i
CC(NC(=O)c1ccc(Cl)cc1)c1nnc(SCC(=O)Nc2ccccc2F)n1C (stereo not given),i
C=CCc1ccccc1OCc1n[nH]c(=S)n1-c1ccccc1,4%
CCc1sc(NC(=O)CN2CCOCC2)nc1-c1ccccc1,9%
COc1ccc(NC(=O)CN2CCC(C)CC2)cc1,2%
O=C1c2ccccc2C(=O)N1CCCCN(C(=O)c1cccc([N+](=O)[O-])c1)c1ccc(Cl)cc1,i
COc1cc(C2CC(=O)Nc3cc4c(cc32)OCCO4)cc(OC)c1OC (stereo not given),i
COc1ccccc1N1C(=O)CC(N2CCc3ccccc32)C1=O (stereo not given),i
COc1ccc(OC)c(NC(=S)NC2CCCCCC2)c1,1%
Cc1ccc(S(=O)(=O)c2nc(SCC(N)=O)sc2Cl)cc1,1%
CCc1ccc(NC(=O)CCC(=O)Nc2ccc(CC)cc2)cc1,i
SMILES,Mtb H37Rv
Cc1cc(Br)cc(C)c1OC(=O)c1ccc(F)cc1,i
N#Cc1c(-c2ccccc2)cc(-c2ccccc2Cl)nc1N,6%
Cc1nc(=O)c(-c2ccccc2)c(C)n1-c1ccccc1C(=O)O,i
COC(=O)Nc1sc2c(c1C(=O)OC)CCCC2,i
COc1ccccc1C(=O)Nc1sc2c(c1C(=O)NC1CCS(=O)(=O)C1)CCCC2 (stereo not given),i
Cc1cccc(NC(=S)NNC(=O)c2ccco2)c1,i
Cc1cc(C)nc(NS(=O)(=O)c2ccc(NC(=O)COc3c(C)ccc(C)c3C)cc2)n1,i
CCN(CC)CCCOc1cc(C(C)C)ccc1C,i
O=C(COc1ccccc1Cl)Nc1sc2c(c1C(=O)NCc1ccco1)CCCC2,i
O=C(c1ccc([N+](=O)[O-])cc1)N1CCC(C(=O)N2CCN(c3ccc(F)cc3)CC2)CC1,3%
O=C(Nc1cccnc1)c1ccc2c(c1)C1C3CCC(C3)C1C(c1ccccc1)N2 (stereo not given),37µg/mL*
Cc1ccccc1C(=O)Nc1cccc(NC(=O)COc2ccccc2Cl)c1,i
Cc1nnc(SCc2cnc(-c3ccccc3)o2)[nH]c1=O,i
COC(=O)C1CCN(C(=O)Nc2cccc(Cl)c2)CC1,i
O=C(Nc1nncs1)c1cc(-c2ccccc2)nc2ccccc12,i
Cc1ccccc1CN1C(=O)C(=O)c2ccccc21,18%
O=C(Nc1nc(-c2ccc(S(=O)(=O)N3CCCC3)cc2)cs1)c1ccco1,i
O=c1[nH]cc(COCc2ccccc2)c(=O)[nH]1,i
O=C(O)CS(=O)(=O)c1ccccc1C(=O)O,i
Cc1cccc(NC(=O)c2ccccc2OCC(=O)c2ccc(Cl)cc2)c1C,3%
CCOC(=O)C1C(=O)CC(C)(O)C(C(=O)OCC)C1c1cc(Br)ccc1OC (stereo not given),3%
Cc1nc(NC(=O)c2cccc(Cl)c2Cl)ccc1I,i
COC(=O)Nc1sc(C)c(C)c1C(=O)Nc1ccccc1OC,i
Cc1ccc(-n2nnnc2SCC(=O)NCc2cccc(C(=O)O)c2)c(C)c1,i
COc1ccc(NS(=O)(=O)c2cc(OC)ccc2OC)cc1,i

# Retrieved one by one from above:
SMILES,Mtb H37Rv
COc1ccc(NS(=O)(=O)c2cc(OC)ccc2OC)cc1,i
O=C(Nc1cccnc1)c1ccc2c(c1)C1C3CCC(C3)C1C(c1ccccc1)N2 (stereo not given),37µg/mL*

# (list continues)
SMILES,Mtb H37Rv
CCOC(=O)c1sc(NC(=O)CCCOc2ccc(OC)cc2)c(C(=O)OCC)c1C,i
COc1cccc(C2=CC(c3ccccc3F)n3ncnc3N2)c1 (stereo not given),i
Cc1ccc(NC(=O)C2CC(=O)N(c3ccc(C)c(C)c3)C2)c(C)c1 (stereo not given),i
Cc1nc(SCc2ccc(CSc3n[nH]c(C)n3)cc2)n[nH]1,i
O=C(O)CCCNC(=O)c1cccc(Br)c1,i
CN(C)CCSc1nnc2sc3ccccc3n12,i
N#Cc1c(NC(=O)c2cc(-c3ccccc3)on2)sc2c1CCC2,i
COc1cccc(CSc2nc3ccccc3c(=O)n2-c2ccc(Br)cc2)c1,i
Cn1c(=O)c2ncn(CC(=O)Nc3ccc(N4CCN(Cc5ccccc5)CC4)cc3)c2n(C)c1=O,i
O=C(Cc1ccccc1)NCC(=O)OCc1ccc(I)cc1,i
O=C(c1cn(-c2ccccc2)nc1-c1ccncc1)N1CCOCC1,i
Cc1cc(C)c2oc(-c3cc(NC(=S)NC(=O)c4ccc5c(c4)OCCO5)ccc3Cl)nc2c1,i
Cc1ccc(-c2cc(C(=O)NNC(=S)NCc3ccco3)c3ccccc3n2)s1,2%
OC(COc1ccc(Cl)cc1)CN1CCN(c2ccccc2F)CC1 (stereo not given),18%
COC(=O)c1cn(CC(=O)N2CCCC2)c2ccccc12,i
CCC(C)c1ccc(O)c(NC(=O)c2cncc(Br)c2)c1 (stereo not given),i
COc1cc(NC(=O)COc2ccccc2OC)cc(OC)c1,i
COc1ccc(OC)c(NC(=O)CN(c2ccc(C)c(C)c2)S(=O)(=O)c2ccc(Cl)cc2)c1,9%
CC12CN(C(=O)c3ccccc3)CC(c3ccccc3)(CN(C(=O)c3ccccc3)C1)C2=O,4%
CCN(CC)c1ccc(NC(=O)c2ccc(OCc3ccccc3)cc2)c(C)c1,i
COc1ccc(OC(C)C(=O)NCC2CCCO2)cc1 (stereo not given),i
C=C(C)c1cccc(C(C)(C)NC(=O)Nc2cc(C)ccc2OC)c1,i
CCN(CC)C(=O)C(=O)c1cn(CC(=O)Nc2ccccc2OC)c2ccccc12,i
CCn1c(CNC(=O)c2ccc(OC)c(OC)c2)nnc1SCC(=O)Nc1cc([N+](=O)[O-])ccc1C,i
O=C(CCCc1nc(-c2ccc(Cl)cc2)no1)NCc1cccnc1,i
SMILES,Mtb H37Rv
COC(=O)c1cccc(NC(=O)C2COc3ccccc3O2)c1 (stereo not given),i
N#Cc1c(SCC(=O)N2CCc3ccccc3C2)nsc1SCC(=O)N1CCc2ccccc2C1,i
CCC(C)NCCOc1ccc(C(C)(C)CC)cc1 (stereo not given),38%
N#Cc1ccc(Oc2cccc3cccnc23)cc1C#N,1%
Cc1cc(Br)ccc1OCC(=O)N(Cc1nc(-c2ccccc2)no1)C(C)C,6%
COc1ccc(CCNC(=O)C2CCN(C(=O)c3cccc(Cl)c3)CC2)cc1OC,i
CC(=O)Nc1ccc2nc(NC(=O)COc3ccc(Br)cc3)sc2c1,4%
Cc1cccc(N2CC(C(=O)Nc3nc4ccccc4s3)CC2=O)c1C (stereo not given),i
CC(C)(C)N(CCO)C(=O)CN1C(=O)/C(=C/c2ccccc2F)SC1=S,i
CCC(C)NC(=O)c1ccccc1NC(=O)CN(c1cc(C(F)(F)F)ccc1Cl)S(C)(=O)=O (stereo not given),2%
Cc1ccc(N(Cc2cccc(Cl)c2)S(C)(=O)=O)cc1C,i
CCOC(=O)c1cccc(NC(=O)COc2ccccc2OCC)c1,18%
CCCNC(=O)c1cc(OC)c(OC)c(OC)c1,1%
Cc1ccc(S(=O)(=O)Nc2nc3ccc(S(=O)(=O)N4CCOCC4)cc3s2)cc1,i
CCC(=O)NC(=S)Nc1cc(C(=O)O)ccc1OC,2%
CCCCC(=O)Nc1ccc(NC(=S)NC(=O)c2cc(Cl)cc(Cl)c2OC)cc1OC,i
COc1cc(OC)c(NC(=O)COc2ccc(Br)cc2C)cc1Cl,i
Cc1ccc(C2CC(=O)Nc3cc4c(cc32)OCCO4)cc1 (stereo not given),i
CC(=O)Nc1cc(-c2nc3cc(C)ccc3o2)ccc1C,1%
Cn1c2ccccc2c2ccc(CC(=S)N3CCOCC3)cc21,i
Cc1ccc(O)c(NS(=O)(=O)c2ccc([N+](=O)[O-])cc2)c1,i
CCn1c2ccccc2c2nnc(SCC(=O)Nc3ccc(C(C)=O)cc3)nc21,i
COC1(C(F)(F)F)NC(=O)N(C2CCCCC2)C1=O (stereo not given),i
O=C(COc1ccc([N+](=O)[O-])cc1)NC(C(=O)O)C(O)c1ccccc1 (stereo not given),i
C=CCn1c(SCC(=O)Nc2ccccc2OCC)nc2sc(-c3ccccc3)cc2c1=O,i
SMILES,Mtb H37Rv
CCc1c(C)c2ccc(OCc3ccccc3C)cc2oc1=O,i
Cc1[nH]c(=O)[nH]c(=O)c1NC(=O)CC12CC3CC(CC(C3)C1)C2,i
COCCCNC(=O)CCC(=O)NCCCOC,i
CC(C)(C)C(=O)Nc1ccc(C(=O)Nc2cccc(C(=O)O)c2)cc1,i
COC(=O)c1ccc(NC(=O)CN(Cc2ccccc2)S(C)(=O)=O)cc1,i
CN1C(=O)c2cccc(NC(=O)C3COc4ccccc4O3)c2C1=O (stereo not given),i
CCCC(C)C(=O)NCc1ccncc1 (stereo not given),i
CS(=O)(=O)Nc1ccccc1C(=O)NCc1ccco1,i
COc1cccc(CNC2CCCCC2)c1O,i

# As a working copy, 18 of the compounds above.
SMILES,Mtb H37Rv
CCCCN1C(=O)/C(=C2/C(=O)N(CC)c3ccccc32)SC1=S,i
CCCNC(=O)NC(C)c1cccs1 (stereo not given),i
CCOc1cc(C=O)cc(Cl)c1OCc1ccccc1C#N,i
O=C(c1cccnc1)N1C2C=CC(C2)C1(C(F)(F)F)C(F)(F)F (stereo not given),i
COc1ccc(C2=NN(S(C)(=O)=O)C(c3ccccc3Cl)C2)cc1 (stereo not given),2%
O=C(NC(=S)Nc1cccc(F)c1)c1cccc(S(=O)(=O)N2CCOCC2)c1,i
COC(=O)c1ccc(OC(=O)C(C)C)cc1,i
COc1ccc(NC(=O)NC23CC4CC(CC(C4)C2)C3)c(C)c1,2%
CCOc1ccc(NC(=O)c2ccc(-c3ccccc3[N+](=O)[O-])o2)cc1,i
O=C(Nc1n[nH]c(C2CCCCC2)n1)C1CCCCC1,i
Cc1ccc(S(=O)(=O)c2nc(C(C)(C)C)oc2N2CCOCC2)cc1,i
O=C(Nc1cccc(C(=O)Nc2ccc3c(c2)OCCO3)c1)c1ccccc1,i
CCCN(CCC)c1nc(OC)nc(OC)n1,2%
O=C(Cn1nnc2sc3c(c2c1=O)CCCC3)OCc1ccccc1,i
Cc1ccc(S(=O)(=O)Nc2ccccc2CNc2c(C)cccc2C)cc1,i
CC(=O)c1cccc(NC(=O)C2CCCN(S(=O)(=O)c3ccccc3)C2)c1 (stereo not given),i
CCc1cccc(CC)c1NC(=O)C1CC(=O)N(c2ccc(F)cc2)C1 (stereo not given),i
CCCc1cc(C(N)=O)c(NC(C)=O)s1,?

# Some of the compounds tested; the hit share may differ from the screen's.
